RE007 growth inh: qHTS Assay for Inhibitors of the HIV-1 protein Vpr. S. pombe RE007 Vpr strain, BacTiter-Glo ATP luminescence, 24 h; control for the full effect not named in the record. Potency, µM (series often up to 92.2 µM), inactives show at the top dose activity change, negative = less growth. 360,000 tested, 0.21% active. AID 651644, 2012; active = well fitted falling curve with a large enough effect; inconclusive = small, poorly fitted or top-dose-only effect; inactive = no such curve, though single readings can be large or run the other way;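 further: on the % scale 0 is the no-effect control and ±100 the full control effect; nearly all actives have a fitted effect of over 50% in size; the assay follows cell death caused by Vpr and the record does not say whether a fall means rescue or toxicity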
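Fission yeast RE007 carrying one integrated HIV-1 vpr copy, seeded at OD 0.01 in PMG+AL medium with 23 nL pinned compound. Grown 24 h at 30 degrees; viability read by BacTiter-Glo luminescence after 5 min.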
2A StopGo: High Throughput Screening for Foot and Mouth Disease Virus Antivirals. Potency, µM (highest dose often 57.9 µM), inactives show top-dose signal change, negative = less light. 410,000 tested, 1.2% active. human cells with a luciferase reporter of 2A StopGo recoding; control for the full effect not named in the record; active = well fitted falling curve with a large enough effect; inconclusive = small, poorly fitted or top-dose-only effect; inactive = no such curve, though single readings can be large or run the other way; tested in HEK293T cells; further: on the % scale 0 is the no-effect control and ±100 the full control effect; nearly all actives have a fitted effect of over 45% in size; luciferase light after 4 h
MARV entry inh: qHTS for inhibitors of binding or entry into cells for Marburg Virus. Marburg virus pseudotyped entry inhibition, cell reporter; control for the full effect not named in the record; about a third of the inactives were read at about 46 µM. Potency, µM (top dose mostly 37.8 µM), without a hit: at the top dose activity change, negative = inhibition, actives largely listed as inhibitors. 300,000 tested, 1.8% active; active = well fitted inhibition curve with a large enough effect; inconclusive = small, poorly fitted or top-dose-only effect, or effect the other way; inactive = flat fitted curve, though single readings scatter; tested in HEK293 cells; about a fifth of its hits are not listed in these tables; further: on the % scale 0 is the no-effect control and ±100 the full control effect; luciferase read-out
Lassa entry inh: qHTS for Inhibitors of binding or entry into cells for Lassa Virus | Lassa virus pseudotype entry inhibition, cell reporter; control for the full effect not named in the record | Potency, µM (titrated, usually from 37.9 µM), for the others: top-dose activity change, negative = inhibition, most hits filed as inhibitors | 300,000 tested, 1.2% active | AID 540256, 2011; active means well fitted inhibition curve with a large enough effect; inconclusive means small, poorly fitted or top-dose-only effect, or effect the other way; inactive means flat fitted curve, though single readings scatter; tested in HEK293 cells; further: on the % scale 0 is the no-effect control and ±100 the full control effect; nearly all actives have a fitted effect of over 50% in size; luciferase read-out
NS1 inh: qHTS Assay for Inhibitors of Influenza NS1 Protein Function; 270,000 tested, 0.4% active; Potency, µM (top dose mostly 46.1 µM), for the others: at the highest dose activity, positive = more growth; AID 2326, 2010; S. cerevisiae slowed by influenza A NS1, growth recovery by OD600; further: actives are rising curves; nearly all actives have a fitted effect of over 50% in size
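OD600 was taken as the measure of yeast growth restored by compound in an NS1-expressing S. cerevisiae strain. Cells had been washed out of glucose medium and diluted 1:100 into galactose -URA medium, pH 6.0.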
Cruzain Triton: qHTS Assay for Promiscuous and Specific Inhibitors of Cruzain (with detergent) | Cruzipain (Trypanosoma cruzi), P25779 | purified cruzain, Z-FR-AMC fluorescence, 0.01% Triton | Potency, µM, without a hit: max response, negative = inhibition, most hits filed as inhibitors | 200,000 tested, 0.43% active; active means well fitted curve in the direction sought with a large enough effect; inconclusive means small, poorly fitted or top-dose-only effect, or another doubt; inactive means no such curve, though single readings can be large; an effect the other way counts as inactive or inconclusive;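 further: plate controls were neutral wells for no effect and buffer without enzyme for full effect; nearly all actives have a fitted effect of over 40% in size; top concentration of the series not given in the record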
Target sequence (P25779 123-467 limits assumed): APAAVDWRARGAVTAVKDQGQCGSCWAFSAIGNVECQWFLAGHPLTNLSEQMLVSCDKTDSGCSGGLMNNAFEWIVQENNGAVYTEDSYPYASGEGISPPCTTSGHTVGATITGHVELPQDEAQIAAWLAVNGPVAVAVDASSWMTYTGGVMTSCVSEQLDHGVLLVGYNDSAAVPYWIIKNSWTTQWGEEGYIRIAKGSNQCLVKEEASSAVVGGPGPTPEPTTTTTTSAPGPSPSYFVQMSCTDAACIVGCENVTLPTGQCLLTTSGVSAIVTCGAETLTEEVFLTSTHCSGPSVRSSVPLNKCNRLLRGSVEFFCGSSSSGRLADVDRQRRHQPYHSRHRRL
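Cruzain (1.5 nM) preincubated 15 min at RT with compound in 100 mM sodium acetate pH 5.5, 5 mM DTT, 0.01% Triton X-100. Reaction started with 2 uM Z-FR-AMC; AMC fluorescence (ex 360/em 450 nm) change over 60 s gave rate.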
Cruzain inh noDet: qHTS Assay for Promiscuous and Specific Inhibitors of Cruzain (without detergent) | Cruzipain (Trypanosoma cruzi), P25779 | 200,000 tested, 2.3% active | purified cruzain, Z-FR-AMC fluorescence, no detergent | Potency, µM, for inactives: max response, negative = inhibition, most hits filed as inhibitors; active means well fitted curve in the direction sought with a large enough effect; inconclusive means small, poorly fitted or top-dose-only effect, or another doubt; inactive means no such curve, though single readings can be large; an effect the other way counts as inactive or inconclusive;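 further: plate controls were enzyme without inhibitor for no effect and buffer without enzyme for full effect; nearly all actives have a fitted effect of over 40% in size; top concentration of the series not given in the record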
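Detergent-free condition (0.00005% Triton X-100) in acetate buffer pH 5.5 with DTT. 1.5 nM enzyme and compound were pre-mixed 15 min, then 2 uM Z-FR-AMC substrate added; reaction progress from fluorescence change between first and third reads (60 s).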
SARS PLP yeast: qHTS of Yeast-based Assay for SARS-CoV PLP; Potency, µM (top dose mostly 32.9 µM), for the others: top-dose activity, positive = growth rescue; S. cerevisiae expressing SARS-CoV PLpro, growth rescue; control for the full effect not named in the record; 330,000 tested, 0.19% active; AID 485353, 2010; further: 0% is about no effect; nearly all actives have a fitted effect of over 55% in size; growth read by luminescence after 48 h
An asterisk follows results filed as active; & = joins results of further samples; ! = repeats disagree; [ ] = another dose, or the depositor's remark. Unless noted, the call rests on the fitted dose curve; in most records, active means well fitted rising curve with a large enough effect; inconclusive means small, poorly fitted or top-dose-only effect; inactive means no such curve, though single readings can be large or run the other way. Potency means the concentration at half of the fitted maximal effect.

Screening CCOc1ccccc1NC(=O)c1cccc(NC2=NC3CS(=O)(=O)CC3S2)c1 (stereo not given) returned RE007 growth inh 9%, 2A StopGo -2%, NS1 inh -5% and SARS PLP yeast -2%.
COc1cc(C(=O)Nc2cc(C)nn2-c2ccccc2)cc(OC)c1OC was read as RE007 growth inh 27%, 2A StopGo -12%, MARV entry inh -14%[46.1 µM], Lassa entry inh inconclusive, NS1 inh 12% and SARS PLP yeast 1%.
`CCOC(=O)c1cccc(NC(=O)c2cccnc2)c1` gave RE007 growth inh 3%, 2A StopGo 20%, MARV entry inh -11%, Lassa entry inh 9%, NS1 inh -62%, Cruzain Triton -1.0%, Cruzain inh noDet 3% and SARS PLP yeast -1%.
For O=c1[nH]c2ccccc2n2c(-c3ccccc3)nnc12 the results were RE007 growth inh inconclusive, 2A StopGo -9%, MARV entry inh 7%[46.1 µM], Lassa entry inh 2%, NS1 inh -52%, Cruzain Triton 7.1%, Cruzain inh noDet 1% and SARS PLP yeast -26%.
`Cc1cccc(C)c1-n1ncc(C(=O)NCc2ccc3c(c2)OCO3)c1C1CCN(C(=O)OC(C)(C)C)CC1` gave 2A StopGo -9%, Lassa entry inh inconclusive, Cruzain Triton -1.0% and Cruzain inh noDet -2%.
Cc1ccc(NNC(=O)c2c(F)cccc2Cl)cc1Cl was read as RE007 growth inh 22%, 2A StopGo -3%, MARV entry inh -19%[46.1 µM], Lassa entry inh -5%, NS1 inh -42% and SARS PLP yeast -4%.
`Cc1noc(C)c1CSCC(=O)Oc1ccc(N(C)S(=O)(=O)c2ccc(Cl)cc2)cc1` gave RE007 growth inh -16%, 2A StopGo 0%, MARV entry inh -27%[46.1 µM], Lassa entry inh -13% and SARS PLP yeast -6%.
`O=C(Nc1cccc(S(=O)(=O)N2CCCCCC2)c1)c1ccc2c(c1)OCO2` gave RE007 growth inh 1%, 2A StopGo -2%, MARV entry inh inconclusive, Lassa entry inh inconclusive, NS1 inh 8%, Cruzain Triton -7.9%, Cruzain inh noDet 9% and SARS PLP yeast 13%.
Screening Cc1cccc(-c2nc(SCC(=O)Nc3cc(C)on3)c3c(=O)n(C)c(=O)n(C)c3n2)c1 returned 2A StopGo -19%, Lassa entry inh 4%[46.1 µM], Cruzain Triton 2.8% and Cruzain inh noDet -7%.
Screening Cc1cc(CNC(=O)CC2C(=O)NCCN2Cc2ccccc2C(F)(F)F)on1 (stereo not given) returned RE007 growth inh 4%, 2A StopGo -14%, MARV entry inh -11%[46.1 µM], Lassa entry inh 19%[46.1 µM], NS1 inh 3% and SARS PLP yeast 1%.
For CCN(CC)CCNC(=O)c1ccc(CS(=O)(=O)c2ccccc2C)o1 the results were RE007 growth inh 1%, 2A StopGo 8%, MARV entry inh 5%[46.1 µM], Lassa entry inh 25%[46.1 µM], NS1 inh 4% and SARS PLP yeast -1%.
CC(=O)c1cccc(NC(=O)c2ccccc2N(Cc2ccccc2)S(C)(=O)=O)c1 was read as RE007 growth inh -12%, 2A StopGo -8%, NS1 inh 11% and SARS PLP yeast 0%.
`COC(=O)c1sc(NC(=O)CSc2nc3nc(C)cc(C)n3n2)c(C(=O)OC)c1C` gave RE007 growth inh 14%, 2A StopGo -29%, MARV entry inh inconclusive and Lassa entry inh 0%.
Screening Cc1ccc(NC(=O)c2ccc3nc(N4CCOCC4)sc3c2)c(Cl)c1 returned RE007 growth inh 1%, 2A StopGo 14%, NS1 inh 1% and SARS PLP yeast 2%.
O=C(O)c1cc(O)ccc1NC(=O)c1cccc2ccccc12 was read as RE007 growth inh -18%, 2A StopGo 53%[activator], MARV entry inh -1%[46.1 µM], Lassa entry inh 15%, NS1 inh 0% and SARS PLP yeast 0%.
`Cc1cccc(NC(=S)NNC(=O)c2ccccc2Br)c1` gave RE007 growth inh 23%, 2A StopGo 45%[activator], MARV entry inh 8%, Lassa entry inh inconclusive, NS1 inh -9%, Cruzain Triton -1.9%, Cruzain inh noDet 1% and SARS PLP yeast inconclusive.
Nc1cc2nc3ccccc3oc-2cc1=O was read as RE007 growth inh 63µM*, 2A StopGo 13%, NS1 inh -64% and SARS PLP yeast -6%.
Screening CN(C)c1nc(N)c(C(=O)N=C(N)N)nc1Cl returned RE007 growth inh -14%, 2A StopGo -15%, MARV entry inh inconclusive, Lassa entry inh 2%, NS1 inh 3%, Cruzain Triton -10.0% and Cruzain inh noDet -20%.
Screening CC(C)N(Cc1nccn1C)C(=O)c1cc(COc2ccc(-n3cncn3)cc2)on1 returned RE007 growth inh -28%, 2A StopGo -7%, MARV entry inh 16% and Lassa entry inh 1%.
Cc1cc(C)n2nc(C(=O)OCC(=O)N(CC(C)C)C3CCS(=O)(=O)C3)nc2n1 (stereo not given) was read as RE007 growth inh -4%, 2A StopGo -2%, MARV entry inh 4%[46.1 µM], Lassa entry inh 4%[46.1 µM] and SARS PLP yeast -3%.
For CCc1ccc(-c2cc(C)no2)cc1S(=O)(=O)NCc1ccccc1OC the results were RE007 growth inh -10%, 2A StopGo 50%[activator], NS1 inh -39% and SARS PLP yeast 1%.
`CCOc1ccc(CCNS(=O)(=O)c2cccc3nsnc23)cc1OCC` gave RE007 growth inh 3%, 2A StopGo 9%, MARV entry inh 30%, Lassa entry inh 3%, NS1 inh 4%, Cruzain Triton 1.3%, Cruzain inh noDet -8% and SARS PLP yeast 1%.
O=C(CCC1=NS(=O)(=O)c2ccccc2N1)NC1CCCCCCC1 was read as RE007 growth inh 2%, 2A StopGo 43%[activator], MARV entry inh inconclusive, Lassa entry inh inconclusive, NS1 inh -2%, Cruzain Triton 3.6%, Cruzain inh noDet 5% and SARS PLP yeast 7%.
Cc1cccc(N2CCN(C(=O)[C@H](C)N3C(=O)C4CC=CCC4C3=O)CC2)c1C (stereo not given in full) was read as RE007 growth inh -9%, 2A StopGo inconclusive, MARV entry inh inconclusive, Lassa entry inh -28%[46.1 µM] and SARS PLP yeast 0%.
`CCOC(=O)N1CCN(Cc2nc(-c3cccs3)no2)CC1` gave RE007 growth inh 13%, 2A StopGo 48%[activator], NS1 inh -1% and SARS PLP yeast 0%.
CCN1C(=O)c2ccc(C(=O)Nc3ncc(C)s3)cc2C1=O was read as RE007 growth inh -9%, 2A StopGo -45%, MARV entry inh 0%[46.1 µM], Lassa entry inh -14%, NS1 inh 4% and SARS PLP yeast 1%.
O=C(CNC(=O)c1ccccn1)N/N=C/c1ccccc1 was read as RE007 growth inh 11%, 2A StopGo 8%, MARV entry inh -2%, Lassa entry inh 13%, NS1 inh -18%, Cruzain Triton 1.0%, Cruzain inh noDet -3% and SARS PLP yeast 0%.
For Cc1sc2nc(SCC(N)=O)n(C)c(=O)c2c1C the results were RE007 growth inh 10%, 2A StopGo 18%, MARV entry inh inconclusive, Lassa entry inh 6%, NS1 inh -1%, Cruzain Triton -4.2%, Cruzain inh noDet 13% and SARS PLP yeast 15%.
`CC(CCc1ccc(O)cc1)NCc1ccc(Br)cc1` (stereo not given) gave RE007 growth inh 13%, 2A StopGo -15%, MARV entry inh inconclusive, Lassa entry inh inconclusive, NS1 inh 13% and SARS PLP yeast 1%.
NCCCS(=O)(=O)O was read as RE007 growth inh 2%&0%, 2A StopGo -29%&-19%&1%, MARV entry inh 8.2µM*!, Lassa entry inh inconclusive, NS1 inh -5%&-10%, Cruzain Triton 0.5%&-6.2%&3.6%, Cruzain inh noDet 2%&6%&1% and SARS PLP yeast -7%.
For CCCCN(C)CCN1C(=O)C2C(C(=O)Nc3cccc(OC)c3)C3C=CC2(O3)C1C(=O)NC1CCCCC1C (stereo not given) the results were RE007 growth inh 3%, 2A StopGo 10%, MARV entry inh inconclusive, NS1 inh -12% and SARS PLP yeast 0%.
For O=C1Nc2ccccc2C1=Nc1cccc(Cl)c1 the results were RE007 growth inh 3%, 2A StopGo 3%, MARV entry inh 3%, Lassa entry inh 0%, NS1 inh -6% and SARS PLP yeast 0%.
`CC(C)N1CCC2(CC1)NC(CO)(CO)CO2` gave RE007 growth inh -8%, 2A StopGo 8%, MARV entry inh 6%, Lassa entry inh -1%, NS1 inh 1%, Cruzain Triton 4.4%, Cruzain inh noDet 2% and SARS PLP yeast 4%.
Cc1ccc(SCCNC(=S)Nc2ccccc2)cc1 was read as RE007 growth inh -28%, 2A StopGo 1%, MARV entry inh -15%[46.1 µM], Lassa entry inh -2%, NS1 inh -47%, Cruzain Triton -14% and Cruzain inh noDet -3%.
For CCSC1(SCC)N=C(N)C2(C#N)C(c3ccccc3)NC(C)=CC12C#N (stereo not given) the results were RE007 growth inh 4.5µM*, 2A StopGo -7%, MARV entry inh -1%, Lassa entry inh 9%, NS1 inh -1%, Cruzain Triton -1.1%, Cruzain inh noDet 13% and SARS PLP yeast 0%.
`CCOCC(=O)Nc1ccc(S(=O)(=O)N2CCOCC2)cc1` gave RE007 growth inh -23%, 2A StopGo 0%, MARV entry inh 16%[46.1 µM], Lassa entry inh -15%, NS1 inh -19%, Cruzain Triton 8.2%, Cruzain inh noDet -11% and SARS PLP yeast -3%.
For COC(=O)Cn1cc(C(=O)C(C)(C)C)c2ccccc21 the results were RE007 growth inh -15%, 2A StopGo 4%, MARV entry inh -2%[46.1 µM], Lassa entry inh 9%, NS1 inh 1% and SARS PLP yeast -1%.

Bioassay records deposited in PubChem BioAssay by National Center for Advancing Translational Sciences (NCATS).
